# VDR inhibitor: Inhibitors of the vitamin D receptor (VDR): qHTS; Vitamin D3 receptor (Homo sapiens), P11473; VDR-SRC2-3 peptide fluorescence polarization, 2 h; Potency, µM, inactives show max response, negative = inhibition, actives largely listed as inhibitors; 400,000 compounds, 0.93% hits; AID 504847, 2011; active = well fitted inhibition curve with a large enough effect; inconclusive = small, poorly fitted or top-dose-only effect, or another doubt; inactive = no such curve, though single readings can be large or run the other way; also: series mostly up to about 120 µM
# Target sequence (P11473 whole entry, looked up): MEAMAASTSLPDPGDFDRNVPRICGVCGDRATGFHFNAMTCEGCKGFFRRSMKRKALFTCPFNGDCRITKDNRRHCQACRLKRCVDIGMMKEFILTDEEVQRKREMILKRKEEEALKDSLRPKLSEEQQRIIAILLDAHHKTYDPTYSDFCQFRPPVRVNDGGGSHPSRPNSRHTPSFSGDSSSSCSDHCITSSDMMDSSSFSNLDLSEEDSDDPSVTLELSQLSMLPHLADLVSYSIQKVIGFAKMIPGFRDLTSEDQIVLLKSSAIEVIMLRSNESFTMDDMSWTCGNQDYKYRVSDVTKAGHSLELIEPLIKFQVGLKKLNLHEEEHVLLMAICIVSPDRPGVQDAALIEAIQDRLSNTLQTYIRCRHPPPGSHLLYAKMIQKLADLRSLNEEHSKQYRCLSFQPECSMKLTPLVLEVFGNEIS
#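 Reagent solutions, kept cold and dark, are dispensed first; compounds are then pinned in at 23 nl, plates briefly spun, and incubated 2 h at ambient temperature. Inhibition of VDR–SRC2-3 peptide binding is read by fluorescence polarization.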
# An asterisk follows results filed as active; ? = inconclusive. % is scaled to controls: 0 for no effect and ±100 for the full control effect; potency is read from the fitted curve at half-maximal effect.
SMILES,VDR inhibitor
COc1ccccc1NC(=O)c1cc(-c2cc(OC)c(OC)c(OC)c2)nc2ccccc12,6%
Cc1cc(=O)n2c(nc3ccccc32)[nH]1,-3%
O=c1nc(NCc2ccccc2Cl)cn[nH]1,4%
C/C=C/c1ccc(OCCCCOc2c(OC)cccc2OC)c(OC)c1,-19%
CCN1CCN(C(c2ccccc2)c2nnnn2Cc2ccccc2)CC1 (stereo unspecified),0%
CC(=O)N1CCN(c2ccc(NCc3cccc4ccccc34)cc2)CC1,?
Brc1ccc2c(c1)C(C1=NCCN1)c1ccccc1CS2 (stereo unspecified),0%
Cc1c(Cc2ccccc2)c(=O)oc2cc(OCC(=O)NC(Cc3ccc(Cl)cc3)C(=O)O)ccc12 (stereo unspecified),-24%
COc1cc(N2CCC(O)CC2)ccc1Nc1nnc(Cl)c(Nc2ccccc2S(C)(=O)=O)n1,-14%
COc1ccc(OC)c2sc(NC(=O)c3cccc(N4C(=O)CCC4=O)c3)nc12,-12%
CN(CC(=O)NC1CCCCCC1)S(=O)(=O)c1ccc(Br)cc1,7%
CCOC(=O)c1cccc(N2C(=O)C3C(C(=O)NC4CC4)C4(C)C=CC3(O4)C2C(=O)NC(C)(C)C)c1 (stereo unspecified),-2%
COc1cccc(C2C(C(=O)Nc3ccccc3)=C(C)Nc3nc(-c4ccccc4)nn32)c1 (stereo unspecified),-16%
COc1ccc(C(=O)Nc2nc(-c3cccs3)c(NC(C)=O)s2)cc1,8%
CCn1c(SCC(=O)Nc2cccc(F)c2)nc2c(c1=O)SC(C)C2 (stereo unspecified),-25%
O=C(CC(O)(c1ccccc1)C(F)(F)C(F)F)c1cccs1 (stereo unspecified),?
Cc1noc(C)c1S(=O)(=O)N(CC(=O)Nc1ccc(F)cc1F)c1ccc(C(C)C)cc1,-11%
COc1cccc(N2CCN(C(=O)CCC(=O)c3ccc(Cl)s3)CC2)c1,17%
CCS(=O)(=O)N1CCC(C(=O)NCc2cccc(OC)c2)CC1,11%
CCOC(=O)c1c(C)[nH]c(C(=O)COC(=O)CSC)c1C,8%
CCOC(=O)N1CCN(C(=O)C(NC(=O)c2ccc(CC)cc2)C(C)C)CC1 (stereo unspecified),-2%
Cc1cccnc1NC(=O)CCNC(=O)c1ccccc1Cl,-12%
O=C(O)COc1ccc(/C=C/c2ccc3cccc([N+](=O)[O-])c3n2)cc1,-6%
Cc1ccc(SCC(=O)Nc2ccc(N3CCOCC3)cc2)c(C)c1,-3%
Cn1cc([N+](=O)[O-])c(C(=O)N(Cc2ccccc2)Cc2ccccc2)n1,-5%

# The list continues:
SMILES,VDR inhibitor
CCn1cc(/C=C(\NC(=O)c2ccc(C)cc2)C(=O)NCCN2CCOCC2)c2ccccc21,-7%
O=C(NCc1cccc(Cl)c1)C1CCN(C(=O)c2sccc2-n2cccc2)CC1,-19%
COc1ccc(/C(O)=C2\C(=O)C(=O)N(CCN(C)C)C2c2cccc(OC)c2OC)cc1 (stereo unspecified),-3%
COc1ccc(OC)c(NC(=O)C23CCC(C)(C(=O)C2)C3(C)C)c1 (stereo unspecified),-4%
COc1ccccc1C1=NOC(C)(c2sc(-c3ccc(Cl)cc3)nc2C)C1 (stereo unspecified),-5%
COc1cccc(C2N(Cc3ccccc3)C(=O)C2(F)F)c1OC (stereo unspecified),0%
CSc1ccccc1NC(=O)Cn1c([N+](=O)[O-])cnc1C,-17%
CC(C)C[C@H](NC(=O)[C@@H]1O[C@H]1C(=O)O)C(=O)NCCCCN=C(N)N,12%
CCOC(=O)CSc1nc(N)nc(C)c1Cl,?
O=C(c1ccc(Br)cc1)N(Cc1ccco1)c1ccccn1,7%
O=C(NCCCN1CCOCC1)c1ccc2nc(Cc3cccc(Cl)c3)oc2c1,10%
COc1cc(Cl)c(C)cc1NC(=O)CSc1ccccc1,-7%
CC(=O)N1CCN(Cc2nc3cc(Cl)ccc3c(=O)[nH]2)CC1,-8%
O=C(Nc1cccc(Cl)c1)c1cccc(N2C(=O)C3CC=CCC3C2=O)c1 (stereo unspecified),-7%
Oc1ccc(NCc2cccc(OCc3ccc(F)cc3)c2)cc1,?
CCC(CO)Oc1cc(NCc2ccc(OC)cc2)c2ncn(C(C)C)c2c1 (stereo unspecified),-23%
CCOc1ccc(-c2c(C)nn3c(C)c(C(=O)NCc4ccc(Cl)cc4)cnc23)cc1OCC,10%
COc1ccc(Nc2nc(N)nc(CSc3nnc(N)s3)n2)cc1,-10%
CSc1ccc(CCNC(=O)c2cnn(-c3ccccc3)c2-n2cccc2)cc1,-5%
Nc1nc2c(ncn2C2CCCC2)c(=O)[nH]1,-3%
CN(Cc1ccco1)C(=O)C1CCC(=O)N(CCc2cccc(F)c2)C1 (stereo unspecified),22%
CN(C(=S)NC(=O)/C=C/c1ccc(F)cc1)C1CCCCC1,-6%
Nc1ncc(Br)cc1S(=O)(=O)NCCC(=O)N1CCN(c2ccccn2)CC1,12%
COc1cccc(/C=C2\SC(=S)N(C(C(=O)O)c3ccccc3)C2=O)c1OC (stereo unspecified),?
CCc1noc(C)c1C(=O)Nc1ccc(C(F)(F)F)cc1,9%

# (list continues)
SMILES,VDR inhibitor
O=C(Nc1ccccc1)c1cccc(N2C(=O)C3C4C=CC(C4)C3C2=O)c1 (stereo unspecified),-6%
CC(C)NS(=O)(=O)c1ccc(CCC(=O)Nc2cc(Cl)ccc2Oc2ccccc2)cc1,4%
Cc1cccc(N=C2NC(=O)c3cc([N+](=O)[O-])ccc32)c1,-1%
Cc1cc(C(C#N)c2ccccc2F)n2ncnc2n1 (stereo unspecified),-5%
CCN(CC)CCCN(Cc1cc2cc3c(cc2[nH]c1=O)OCO3)C(=S)NCCCOC,-6%
CCN(CC)C(=O)N1c2ccccc2Sc2ccccc21,-8%
O=C(NC(=S)N(CCO)Cc1ccccc1)c1cc(Br)ccc1Cl,-13%
CCC(=O)N1CCc2cc(S(=O)(=O)NC(C(=O)NCCc3ccc(Cl)cc3)C(C)C)ccc21 (stereo unspecified),1%
O=C(Nc1cccc([N+](=O)[O-])c1)C1CC(=O)N(Cc2ccccc2)C1 (stereo unspecified),8%
CC(C)(C)OC(=O)N1CCC(c2c(C(=O)NCCN3CCOCC3)cnn2-c2ccc(F)cc2F)CC1,19%
Cc1ccnn1CCSCC(=O)O,-11%
CN(CC1CCOCC1)C(=O)c1ccc2nc(Cc3cccc(Cl)c3)oc2c1,2%
CC(C)c1cc(CN2CCN(CCC#N)CC2)cc(C(C)C)c1O,-13%
Cc1ccc(CCNC(=O)c2ccc(CS(=O)(=O)c3ccc(Cl)cc3)o2)cc1,5%
CCCCCc1ccc(-c2ccc(OCC)cc2)nc1,-2%
CCOc1ccc(Br)cc1S(=O)(=O)Nc1cccc(S(=O)(=O)N2CCOCC2)c1,1%
COc1cc(/C=C/C(=O)OCC(=O)NC(=O)NC2CCCC2)ccc1OCC#N,?
CC(C)OC(=O)c1cc2c(OC[C@@H](O)CNC(C)(C)C)cccc2[nH]1,0%
Cc1c(C(=O)N2CCOCC2)sc2nc(-c3ccccc3)cn12,-20%
CN(CC(=O)N1CCCCCC1)S(=O)(=O)c1ccc(F)cc1,-2%
COC(=O)c1cccc(CSc2nnc(C)s2)c1,-6%
Cc1cc(C(=O)NCCc2ccc(S(=O)(=O)NC(=O)NN3CCCCCC3)cc2)no1,-7%
COc1cc2cc(CN(Cc3ccc4c(c3)OCO4)C(=O)c3ccco3)c(=O)[nH]c2cc1OC,0%
COC(=O)c1ccc([C@H](NC(=O)c2ccco2)[C@]2(C)C[C@H]2C2CCCCC2)cc1,?
C=CCn1c(C)cc(C(=O)CSc2nnc(NCc3ccccc3)s2)c1C,22%

# The closing 2 compounds of the section before open the next one.
SMILES,VDR inhibitor
COC(=O)c1ccc([C@H](NC(=O)c2ccco2)[C@]2(C)C[C@H]2C2CCCCC2)cc1,?
C=CCn1c(C)cc(C(=O)CSc2nnc(NCc3ccccc3)s2)c1C,22%
CCOC(=O)C1CCN(C(=O)COC(=O)c2ccc(Br)o2)CC1,-13%
COc1cccc(C(C)NC(=O)Nc2cccc(C(F)(F)F)c2)c1 (stereo unspecified),-11%
COc1ccc(C2CC(=O)Nc3c2c(=O)[nH]c2nc4ccccc4n32)cc1 (stereo unspecified),-4%
Cc1ccc2[nH]c3c(=O)n(CCC4=CCCCC4)cnc3c2c1,9%
CC1CCCN(C(=O)C2CC(=O)N(c3ccc(Cl)cc3)C2)C1 (stereo unspecified),2%
COc1ccc(CN(C2CCCCC2C)S(=O)(=O)c2ccc(S(=O)(=O)N(C)C)cc2)cc1OC (stereo unspecified),19%
O=C(NCc1ccccc1)C(c1ccco1)N(C(=O)c1csnn1)C1CC1 (stereo unspecified),-3%
C=CCNC(=O)c1ccc(Cn2c(=S)[nH]c3cc4c(cc3c2=O)OCO4)cc1,11%
Cc1ccc(C(=O)NCC(=O)NCc2ccc(Cl)cc2)s1,15%
CC1(C)C[C@H]2C3=CCC4[C@@]5(C)CC[C@H](O)[C@@](C)(CO)C5CC[C@@]4(C)[C@]3(C)C[C@@H](O)[C@@]2(CO)[C@@H](O)[C@@H]1O (stereo partly specified),-19%
Cc1ccc(C(=O)NNC(=O)C(NC(=O)c2cccc(C)c2)C(C)C)cc1 (stereo unspecified),3%
Cc1ccc(C)c(NC(=O)C(OC(=O)c2cnc(C)cn2)c2ccccc2)c1 (stereo unspecified),0%
COc1ccc(CCNC(=O)c2cc(-c3ccco3)on2)cc1OC,10%
Cc1cc(SCC(=O)NCc2ccc(Cl)cc2)nc(=O)[nH]1,10%
Cc1ccc(C2/C(=C(\O)c3cnn(-c4ccccc4)c3C)C(=O)C(=O)N2CCN(C)C)o1 (stereo unspecified),-29%
COc1cc(/C=C/C(=O)OCC(=O)Nc2ccc3c(c2)OCCO3)ccc1OCC#N,-14%
COC(=O)c1ccc(C2/C(=C(\O)c3ccc4c(c3)OCCO4)C(=O)C(=O)N2CCCN2CCOCC2)cc1 (stereo unspecified),0%
O=C(Nc1nc2c(F)cccc2s1)C1CC1,3%
C=C(NS(=O)(=O)c1ccc(C)cc1)C(=O)OC,7%
COc1cc(CN(C(=O)c2ccc(C)cc2)C2CCS(=O)(=O)C2)cc(OC)c1OC (stereo unspecified),3%
COc1cc(C(=O)Nc2ccc3ccccc3c2)cc(OC)c1OC,5%
COc1cc(-c2cc(-c3ccc(F)cc3)nc(N)c2C#N)ccc1O,-10%
CCOC(=O)N1CCC(N2CCCC(CO)(Cc3cccc(OC)c3)C2)CC1 (stereo unspecified),-19%
COc1ccc(CCN(C)CCC(=O)Nc2c(C)cc(C)cc2C)cc1OC,-18%
CCOC(=O)NC(NCc1ccccc1Cl)(C(F)(F)F)C(F)(F)F,-2%

# Continued:
SMILES,VDR inhibitor
COc1ccc(-c2cc(C(F)(F)F)nc(SCC(=O)Nc3cc(C)on3)n2)cc1,5%
CCc1ccc2c(Cl)c(C(=O)N/N=C/c3c[nH]c4ccccc34)sc2c1,-2%
O=c1sc2ccccc2c(N2CCCC2)c1[N+](=O)[O-],-23%
Cc1ccc(S(=O)(=O)CCSc2n[nH]c(=O)n2-c2ccc3c(c2)OCCO3)cc1,-5%
Cc1c(C(N)=O)nnn1-c1ccc(Br)cc1,8%
Cc1ccc(/C=N/N2CCN(c3ccccc3)CC2)cc1,-11%
COCCn1ccc2c(OCC(=O)NCCc3ccccc3)cccc2c1=O,11%
N#Cc1nc(COc2ccccc2Cl)oc1NCc1ccc(F)cc1,3%
COc1cccc2cc(-c3nc4sc5c(c4c(=O)[nH]3)CCC(C(C)(C)C)C5)c(=O)oc12 (stereo unspecified),8%
O=C(CCn1nnc2ccccc2c1=O)N[C@H](C(=O)O)c1ccccc1,6%
CCOC(=O)c1c(Nc2ccccc2OCCOC)n[nH]c1C,-9%
CCC(Oc1ccccc1)C(=O)Nc1cc(-c2cccc(C)c2)nn1-c1ccccc1 (stereo unspecified),11%
O=C1CSC(=S)N1N=Cc1ccccc1O,?
CC1(C)CC(=NOC(=O)c2ccccc2)CC(C)(C)N1O,0%
O=C(NCCCn1ccnc1)C(=O)NCC1OCCN1S(=O)(=O)c1ccc(F)cc1 (stereo unspecified),5%
Cn1c(CCCNC(=O)c2ccco2)nc2ccccc21,-14%

# In the list so far, these contain an NH in an aromatic ring.
SMILES,VDR inhibitor
Cc1cc(=O)n2c(nc3ccccc32)[nH]1,-3%
O=c1nc(NCc2ccccc2Cl)cn[nH]1,4%
CCOC(=O)c1c(C)[nH]c(C(=O)COC(=O)CSC)c1C,8%
CC(=O)N1CCN(Cc2nc3cc(Cl)ccc3c(=O)[nH]2)CC1,-8%
Nc1nc2c(ncn2C2CCCC2)c(=O)[nH]1,-3%
CCN(CC)CCCN(Cc1cc2cc3c(cc2[nH]c1=O)OCO3)C(=S)NCCCOC,-6%
CC(C)OC(=O)c1cc2c(OC[C@@H](O)CNC(C)(C)C)cccc2[nH]1,0%
COc1cc2cc(CN(Cc3ccc4c(c3)OCO4)C(=O)c3ccco3)c(=O)[nH]c2cc1OC,0%
COc1ccc(C2CC(=O)Nc3c2c(=O)[nH]c2nc4ccccc4n32)cc1 (stereo unspecified),-4%
Cc1ccc2[nH]c3c(=O)n(CCC4=CCCCC4)cnc3c2c1,9%
C=CCNC(=O)c1ccc(Cn2c(=S)[nH]c3cc4c(cc3c2=O)OCO4)cc1,11%
Cc1cc(SCC(=O)NCc2ccc(Cl)cc2)nc(=O)[nH]1,10%
CCc1ccc2c(Cl)c(C(=O)N/N=C/c3c[nH]c4ccccc34)sc2c1,-2%
Cc1ccc(S(=O)(=O)CCSc2n[nH]c(=O)n2-c2ccc3c(c2)OCCO3)cc1,-5%
COc1cccc2cc(-c3nc4sc5c(c4c(=O)[nH]3)CCC(C(C)(C)C)C5)c(=O)oc12 (stereo unspecified),8%
CCOC(=O)c1c(Nc2ccccc2OCCOC)n[nH]c1C,-9%

# Screens as filed in PubChem BioAssay.

# These rows are one share of the data; the hit share may differ from the screen's.
